Six1-Eya2 blk: inhibitors of human Six1/Eya2 interaction; activity change, % (concentration not given with the values); AID 651725; Q15475+O00167; AlphaScreen GST-Six1/His-Eya2 binding, biochemical; stronger effect = lower value; control for the full effect not named in the record; actives 0.56% (n = 360,000); in the data active = activity change below about -65%; inconclusive = about -30% to -65%; inactive = above about -30%
Target sequence (O00167 whole entry, looked up): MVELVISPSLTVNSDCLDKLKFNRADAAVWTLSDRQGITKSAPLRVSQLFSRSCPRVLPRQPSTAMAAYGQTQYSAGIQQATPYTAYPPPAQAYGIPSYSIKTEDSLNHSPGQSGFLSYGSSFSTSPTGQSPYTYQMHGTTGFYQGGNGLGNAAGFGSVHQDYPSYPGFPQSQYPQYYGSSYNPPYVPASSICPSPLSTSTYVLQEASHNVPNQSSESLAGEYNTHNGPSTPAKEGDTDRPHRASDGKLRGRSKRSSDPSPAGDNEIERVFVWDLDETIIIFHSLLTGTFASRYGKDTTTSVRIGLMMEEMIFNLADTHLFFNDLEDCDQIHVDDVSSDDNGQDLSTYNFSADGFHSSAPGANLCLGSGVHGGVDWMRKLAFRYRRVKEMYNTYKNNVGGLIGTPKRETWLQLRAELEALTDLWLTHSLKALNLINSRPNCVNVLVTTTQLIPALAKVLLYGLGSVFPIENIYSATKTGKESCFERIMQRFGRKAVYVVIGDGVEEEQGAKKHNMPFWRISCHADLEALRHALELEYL
Target sequence (Q15475 whole entry, looked up): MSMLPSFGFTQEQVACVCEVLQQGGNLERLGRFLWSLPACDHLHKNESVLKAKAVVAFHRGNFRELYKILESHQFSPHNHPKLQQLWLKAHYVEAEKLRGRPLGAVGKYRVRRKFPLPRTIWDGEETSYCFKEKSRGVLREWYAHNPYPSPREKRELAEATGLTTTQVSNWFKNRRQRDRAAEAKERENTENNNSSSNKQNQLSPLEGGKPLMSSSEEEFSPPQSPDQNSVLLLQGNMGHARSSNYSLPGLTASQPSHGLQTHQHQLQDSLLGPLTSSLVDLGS
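Compounds are tested against tagged Six1 and Eya2 proteins bridged by glutathione donor and nickel acceptor beads; after a one-hour incubation at 37 °C without light, AlphaScreen emission is recorded.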
CtBP-E1A blk: inhibitors of CtBP/E1A interaction; actives 0.49% (n = 340,000); activity change, % (no concentration beside the values); AlphaScreen GST-E1A/His-CtBP binding, 1536-well; stronger effect = lower value; control for the full effect not named in the record; AID 651724; in the data active means activity change below about -65%; inconclusive means about -30% to -65%; inactive means above about -30%; note: compound concentration not given in the record
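AlphaScreen with 125 nM GST-E1A and 125 nM His-CtBP (5X stocks) in Tris pH 8.0, 300 mM NaCl, BSA, Tween 20, TCEP. Compounds preincubated 2 h at 37 deg C, then glutathione donor/nickel acceptor beads added for 1 h at 37 deg C in dark.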
* hit, by the source's call. % is set by controls: 0 for no effect and ±100 for the full control effect.

SMILES	Six1-Eya2 blk	CtBP-E1A blk
O=C(NCC[C@@H]1CC[C@@H](NS(=O)(=O)Cc2ccccc2)[C@@H](CO)O1)C1CC1	4	5
CCc1c(-c2ccccc2OC)ncn1Cc1cccc(-c2ccccc2)c1	-19	-1
COC(=O)C[C@@H]1CC[C@@H](NC(C)=O)[C@@H](CO)O1	12	-20
COC(=O)[C@@]12C[C@@H](CC(=O)NCc3cccs3)C(=O)N(Cc3ccc4c(c3)OCO4)C1=CCC(C)(C)C2	-12	-12
COC(=O)C[C@@H]1CC[C@@H](NS(=O)(=O)c2ccccc2OC)[C@@H](CO)O1	9	-15
Cc1cnc(-c2nc3ccccc3n2C(C)C(=O)Nc2c(C)cccc2C)cn1 (stereo not given)	-3	7
O=C(NC1CCCCC1)C(c1ccnc2ccccc12)n1c(=O)c(-c2ccco2)nc2ccccc21 (stereo not given)	-16	-1
COc1cccc(C(=O)NCCNc2nc3cc(C)cc(C)c3cc2C#N)c1	5	-6
COC(=O)C1=CN(c2ccc(OC)cc2OC)C(N)=C(C#N)C1c1ccccc1F (stereo not given)	-4	5
COC(=O)[C@H](NC(=O)c1cc([C@@H](NC(=O)OC(C)(C)C)C(C)C)sc1N)C(C)C	7	0
COC(=O)[C@]12CCCCC=C1N(CCc1ccc(OC)c(OC)c1)C(=O)[C@H](CC(=O)NCc1cccc3ccccc13)C2	-20	0
O=C(C[C@@H]1CC[C@@H]2[C@H](COC[C@H](O)CN2S(=O)(=O)c2ccccc2)O1)Nc1ccccc1	-1	0
C#CCN1CCc2onc(-c3ccc(Br)cc3)c2C1=O	6	12
CC(C)(C)C(c1nc2ccccc2[nH]1)n1c(-c2cc(Cl)cc(Cl)c2)nc2ccccc21 (stereo not given)	1	5
Cc1ccc2ccc(C(Nc3ccccc3)c3ccc(Cl)cc3)c(O)c2n1 (stereo not given)	-20	-21
C=CCNC(=O)c1cc(-c2ccccc2)sc1N	-16	5
CC(C)(C)C(C(=O)NC1CCCC1)N1CCN(c2ncccc2C#N)CC1 (stereo not given)	1	0
COC(=O)C1=CN(c2ccc(OC)cc2)C(N)=C(C#N)C1c1ccccc1F (stereo not given)	-11	2
COC(=O)[C@@]12C[C@@H](CC(=O)NCc3cccc(C(F)(F)F)c3)C(=O)N(Cc3cccc4ccccc34)C1=CCC(C)(C)C2	-10	2
Cc1ccc(OCc2nc3ccccc3n2C(C(=O)NC(C)(C)C)c2ccncc2)cc1 (stereo not given)	-4	-1
CCC(c1nc2ccccc2[nH]1)n1c(=O)c(-c2ccco2)nc2ccccc21 (stereo not given)	-28	-1
CC(C)NC(=O)C1C(c2ccccc2)=Nc2ccccc2N1C(=O)c1cc(Cl)cc(Cl)c1 (stereo not given)	-15	-9
CS(=O)(=O)c1ccc(S(=O)(=O)N2CCN(C(=O)C(O)c3ccccc3)CC2)cc1 (stereo not given)	0	4
Cc1cc(C)c2cc(C#N)c(NCCNC(=O)c3ccccc3)nc2c1	8	6
COc1ccc(CCC(=O)N2c3ccccc3N=C(c3ccc4c(c3)OCO4)C2C(=O)NCc2ccccc2)cc1 (stereo not given)	-2	-1
CC(C)NC(=O)C1(C)CN(S(C)(=O)=O)CC(=O)N1C1CCN(Cc2ccccc2)CC1 (stereo not given)	2	21
Cc1cccc(C)c1NC(=O)C(c1ccc(C(F)(F)F)cc1)n1c(=O)c(-c2ccccc2)nc2ccccc21 (stereo not given)	-5	-1
CCOC1=C2CN(S(=O)(=O)c3ccc(C)cc3)C(c3ccccc3)CC2N(S(=O)(=O)c2ccccc2Cl)C(c2ccccc2)C1 (stereo not given)	-1	3
CC(=O)N1c2ccccc2N=C(c2ccc3c(c2)OCO3)C1C(=O)NCc1ccccc1 (stereo not given)	-6	5
COC(=O)[C@]12CCCCC=C1N(Cc1ccc3c(c1)OCO3)C(=O)[C@H](CC(=O)NCc1cccc(C(F)(F)F)c1)C2	-6	-8
CCC(CC)C(C(=O)NCc1ccccc1)N1CCN(CCN2CCOCC2)CC1 (stereo not given)	4	-2
CCOC(=O)[C@]12CCCC=C1N(CCc1ccc(OC)c(OC)c1)C(=O)[C@H](CC(=O)N1CCN(C(=O)C3CC3)CC1)C2	2	3
COc1ccc(CN2C(=O)CSCC2(C)C(=O)Nc2c(C)cccc2C)cc1OC (stereo not given)	7	5
CC(=O)Nc1ccc(C(=O)N2c3ccccc3N=C(c3ccc4c(c3)OCO4)C2C(=O)NCc2ccccc2)cc1 (stereo not given)	-8	5
COc1ccc(NC(=O)C(c2ccccc2F)n2c(=O)c(-c3ccco3)nc3ccccc32)cc1 (stereo not given)	-8	0
O=C(NCCOc1ccccc1)C1C(=O)Nc2ccccc2C(=O)N1C1CCCCC1 (stereo not given)	1	-1
Nc1c(-c2ccc(F)cc2)nc2ncccn12	-3	-17
CN1C(=O)[C@@](O)(CC(=O)c2ccccc2)c2cc(Br)ccc21	-15	-4
N#Cc1ccc(C(C(=O)NC2CCCCC2)n2c(=O)c(-c3ccco3)nc3ccccc32)cc1 (stereo not given)	2	-23
Cc1csc(-c2nc3ccccc3n2C(C(=O)NC(C)(C)C)c2ccccc2)c1 (stereo not given)	18	0
CCCCNC(=O)C[C@@H]1C[C@@]2(C(=O)OC)CC(C)(C)CC=C2N(Cc2cccc3ccccc23)C1=O	-5	-1
CSCCC(C(=O)NCc1ccccc1)n1c(Cc2cc(F)cc(F)c2)nc2ccccc21 (stereo not given)	-15	3
O=C(C[C@H]1CC[C@@H]2[C@H](COC[C@H](O)CN2Cc2nccs2)O1)NCc1ccccc1Cl	0	-2
CCCCNC(=O)C1C(c2ccccc2)=Nc2ccccc2N1C(=O)c1ccc(C(F)(F)F)cc1 (stereo not given)	-13	4
O=C(C[C@H]1CC[C@@H](NS(=O)(=O)c2ccccc2)[C@@H](CO)O1)NCc1ccc(Cl)c(Cl)c1	8	5
COC(=O)[C@]12CCCCC=C1N(Cc1ccc3c(c1)OCO3)C(=O)[C@H](CC(=O)NCc1ccc(OC)c(OC)c1)C2	-8	5
CCOC(=O)[C@]12CCCC=C1N(CCC1=CCCCC1)C(=O)[C@H](CC(=O)NCC1CCCCC1)C2	2	1
O=C(C[C@H]1CC[C@@H]2[C@H](COC[C@@H](O)CN2C(=O)C2CC2)O1)NCc1ccccc1Cl	9	8
COC(=O)[C@@]12C[C@@H](CC(=O)NCc3ccc(C)o3)C(=O)N(Cc3cccc4ccccc34)C1=CCC(C)(C)C2	-3	-6
COCCNC(=O)C1C(=O)Nc2ccccc2C(=O)N1c1ccc2c(c1)OCCO2 (stereo not given)	7	-1
O=C(C(=O)N1CCN(c2ccccc2)CC1)c1cccc(Br)c1	-24	-2
COC(=O)[C@]12CCCCC=C1N(Cc1ccc3c(c1)OCO3)C(=O)[C@H](CC(=O)NCC1CCCCC1)C2	-11	2
Cc1ccc(S(=O)(=O)Nc2ccccc2C(C(=O)OC(C)(C)C)C(=O)OC(C)(C)C)cc1	-1	-1
CCOC(=O)C1=CCC(c2ccc(N(CC)CC)cc2)N(S(=O)(=O)c2ccc(C)cc2)C1c1ccc([N+](=O)[O-])cc1 (stereo not given)	4	4
CO[C@@H]1CN(C)C(=O)c2cc(NC(=O)NC3CCCCC3)ccc2OC[C@@H](C)N(CCc2ccccc2)C[C@H]1C	-14	5
COc1ccc(NC(=O)C(c2ccccc2F)n2c(=O)c(-c3cc4ccccc4[nH]3)nc3ccccc32)cc1 (stereo not given)	40	15
C#CCNC(=O)C[C@@H]1C[C@@]2(C(=O)OC)CCCCC=C2N(Cc2ccc3c(c2)OCO3)C1=O	0	3
Cc1ccc(S(=O)(=O)N2[C@@H](Cc3ccccc3)CO[C@H]2CC(=O)OCc2ccccc2)cc1	-4	-8
COC1=CC(=O)OC(c2cccc(C#N)c2)C1 (stereo not given)	4	1
O=C(C(O)c1ccccc1)N1CCN(S(=O)(=O)c2ccc(OC(F)(F)F)cc2)CC1 (stereo not given)	9	-1
Continued.
SMILES	Six1-Eya2 blk	CtBP-E1A blk
CCCCNC(=O)C[C@@H]1C[C@@]2(C(=O)OC)CC(C)(C)CC=C2N(Cc2ccccc2)C1=O	3	0
COC(=O)/C=C1\OCc2cc(OC)c(OCc3ccccc3)cc21	-18	-9
COC(=O)c1cn(CC(C)n2c(=O)c3ccccc3n2Cc2cc(C(C)C)no2)nn1 (stereo not given)	-2	1
CCC(CC)C(C(=O)NCc1ccccc1)N1CCN(C(=O)C2CCCO2)CC1 (stereo not given)	6	-2
COC(=O)[C@@]12C[C@@H](CC(=O)N3CCN(C(=O)c4ccco4)CC3)C(=O)N(CCc3ccc(OC)c(OC)c3)C1=CCC(C)(C)C2	-7	3
CCC(C)CN1C(=O)CN(S(C)(=O)=O)CC1(C)C(=O)Nc1ccc2c(c1)OCCO2 (stereo not given)	17	-1
Cc1ccc(Cc2nc3ccccc3n2C(CCc2ccccc2)c2nc3ccccc3[nH]2)cc1 (stereo not given)	-7	-1
Nc1nc2ccccc2cc1C(=O)NCc1ccc(-c2ccccc2)cc1	1	-14
O=C1Nc2ccccc2C(=O)N(c2ccc3c(c2)OCCO3)C1C(=O)NC1CC1 (stereo not given)	-2	0
O=C1C=C(OCCF)CC(c2ccccc2C(F)(F)F)O1 (stereo not given)	-6	0
COc1ccc(C(C(=O)NC2CCCC2)n2c(-c3cccs3)nc3ccccc32)cc1 (stereo not given)	-8	6
Cc1ccc(S(=O)(=O)N2[C@H](CC(=O)c3ccc(Cl)c(Cl)c3)OC[C@@H]2C)cc1	10	9
CCCCCNC(=O)C(c1ccccc1F)n1c(=O)c(-c2ccco2)nc2ccccc21 (stereo not given)	-2	-13
COC(=O)C(C(=O)OC)c1ncccc1NS(=O)(=O)c1ccc(C)cc1	-1	0
COc1ccc(C(C(=O)NC(C)(C)C)n2c(-c3ccc(=O)[nH]c3)nc3ccccc32)cc1 (stereo not given)	-4	3
Cc1cccc(C)c1NC(=O)C1C(c2ccccc2)=Nc2ccccc2N1C(=O)c1cnccn1 (stereo not given)	19	24
CCC(C(=O)Nc1c(C)cccc1C)n1c(-c2ccc(-c3ccccc3)cc2)nc2ccccc21 (stereo not given)	-4	0
COC(=O)C1(C(=O)OC)C[C@H](/C=C/c2ccccc2)N(Cc2ccccc2OC)[C@@H]1c1ccc(F)cc1	-7	-5
O=C1Nc2ccccc2-c2nnnn2C1N1CCCCC1 (stereo not given)	2	-7
O=C(Nc1ccc2c(c1)OCCO2)C(C1CC1)n1c(=O)c(-c2ccccc2)nc2ccccc21 (stereo not given)	-6	-18
Cc1cc(N2CCN(C(C(=O)NC3CCCC3)c3ccco3)CC2)c2ccccc2n1 (stereo not given)	-2	-2
Cc1ccc(S(=O)(=O)N2C3CCCCC3O[C@H]2CC(=O)c2ccccc2)cc1 (stereo not given in full)	0	-6
CCCCCNC(=O)C(c1ccc(C#N)cc1)n1c(=O)c(-c2ccco2)nc2ccccc21 (stereo not given)	-7	0
O=[N+]([O-])c1ccc(F)c(CN2CCN(c3ncc(Cc4ccccc4)cn3)CC2)c1	-24	-6
Cc1cccc(C)c1NC(=O)C(c1cccc2ccccc12)n1c(=O)c(-c2ccco2)nc2ccccc21 (stereo not given)	-22	-2
O=C(C(=O)N1CCC(c2ccccc2)CC1)c1ccc(F)c(F)c1	2	0
CCOC1=C2CN(S(=O)(=O)c3ccc(C)cc3)C(c3ccc(CC)cc3)CC2N(S(=O)(=O)c2ccc(C)cc2)C(c2ccc(CC)cc2)C1 (stereo not given)	-2	6
COC(=O)[C@@]12C[C@@H](CC(=O)NCc3cccc4ccccc34)C(=O)N(Cc3ccc4c(c3)OCO4)C1=CCC(C)(C)C2	-11	-1
CCOC(=O)[C@]12CCCC=C1N(CCC1=CCCCC1)C(=O)[C@H](CC(=O)NCc1ccc(C)o1)C2	-21	-22
O=C(Nc1ccc(F)cc1)C(c1ccncc1)N1CCN(c2cccc(C(F)(F)F)n2)CC1 (stereo not given)	19	0

Part of the list above, with two lines to a compound.
Below each SMILES – Six1-Eya2 blk	CtBP-E1A blk
- O=C(NCC[C@@H]1CC[C@@H](NS(=O)(=O)Cc2ccccc2)[C@@H](CO)O1)C1CC1
  4	5
- CCc1c(-c2ccccc2OC)ncn1Cc1cccc(-c2ccccc2)c1
  -19	-1
- COC(=O)C[C@@H]1CC[C@@H](NC(C)=O)[C@@H](CO)O1
  12	-20
- COC(=O)[C@@]12C[C@@H](CC(=O)NCc3cccs3)C(=O)N(Cc3ccc4c(c3)OCO4)C1=CCC(C)(C)C2
  -12	-12
- COC(=O)C[C@@H]1CC[C@@H](NS(=O)(=O)c2ccccc2OC)[C@@H](CO)O1
  9	-15
- Cc1cnc(-c2nc3ccccc3n2C(C)C(=O)Nc2c(C)cccc2C)cn1 (stereo not given)
  -3	7
- O=C(NC1CCCCC1)C(c1ccnc2ccccc12)n1c(=O)c(-c2ccco2)nc2ccccc21 (stereo not given)
  -16	-1
- COc1cccc(C(=O)NCCNc2nc3cc(C)cc(C)c3cc2C#N)c1
  5	-6
- COC(=O)C1=CN(c2ccc(OC)cc2OC)C(N)=C(C#N)C1c1ccccc1F (stereo not given)
  -4	5
- COC(=O)[C@H](NC(=O)c1cc([C@@H](NC(=O)OC(C)(C)C)C(C)C)sc1N)C(C)C
  7	0
- COC(=O)[C@]12CCCCC=C1N(CCc1ccc(OC)c(OC)c1)C(=O)[C@H](CC(=O)NCc1cccc3ccccc13)C2
  -20	0
- O=C(C[C@@H]1CC[C@@H]2[C@H](COC[C@H](O)CN2S(=O)(=O)c2ccccc2)O1)Nc1ccccc1
  -1	0
- C#CCN1CCc2onc(-c3ccc(Br)cc3)c2C1=O
  6	12

The list is partial; count on the stated rates, not on these rows.
